Ecoli growth = inhibitors of Escherichia coli growth. OD600, 23 h; stronger effect = lower value. OD600 absorbance (concentration not given with the values). 330,000 compounds, 0.21% hits. AID 1053175;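 active = OD600 absorbance below the run mean of sample wells minus 3.6 SD, in any replicate, cut at about 0.56 in these data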;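 also: stock transfer was 300 nL into about 60 µL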
* hit, by the source's call; & = joins results of further samples.

How did O=C(NC1CC1)C1=CC(c2coc3ccccc3c2=O)CC(OCCCCO)O1 (stereo not drawn) do in these assays?
Ecoli growth: 0.701&0.705

How did CC(O)C1CNCCN1CCc1cccc(F)c1 (stereo not drawn) do in these assays?
Ecoli growth: 0.647

Results for CC=CC(=O)Nc1cccc(C2=NOC3(C2)CC(C(N)=O)N(C(=O)C=CCC)C3)c1 (stereo not drawn) ?
Ecoli growth: 0.725

What do the screens show for `COC(=O)C1=C(C)N(Cc2ccccc2)C(=NCc2cc(OC)c(OC)c(OC)c2)NC1c1ccc(Br)cc1` (stereo not drawn)?
Ecoli growth: 0.635

Results for O=C(CC1CC=CCC(NC(=O)OCC2c3ccccc3-c3ccccc32)C(=O)OCC(Cc2ccccc2)NC1=O)NCCO (stereo not drawn) ?
Ecoli growth: 0.728

How did COc1ccc(OCC(O)CN(C)C(=O)C=Cc2cccc([N+](=O)[O-])c2)cc1 (stereo not drawn) do in these assays?
Ecoli growth: 0.688

How did C=C1CCN(C(C)C(=O)NCc2ccc(OC)cc2)S(=O)(=O)c2ccccc21 (stereo not drawn) do in these assays?
Ecoli growth: 0.694

How did Cc1ccc(C2CC=C(C(=O)O)C(c3ccccc3)N2S(=O)(=O)c2ccc(C)cc2)cc1 (stereo not drawn) do in these assays?
Ecoli growth: 0.619

How did COC(=O)C1CC1C(NC(=O)OCc1ccccc1)c1ccccc1 (stereo not drawn) do in these assays?
Ecoli growth: 0.679

How did COc1ccc(CC2CN3C(=NCC3Cc3ccc(O)cc3)N2CC(C)NC(=O)c2ccc(C)c(Br)c2)cc1 (stereo not drawn) do in these assays?
Ecoli growth: 0.676

Results for CCOC([O-])=Nc1c[n+](N2CCOCC2)no1 ?
Ecoli growth: 0.65&0.72

Results for CCOc1ccc(C(O)=C2C(=O)C(=O)N(CCOCCO)C2c2cccnc2)cc1 (stereo not drawn) ?
Ecoli growth: 0.636

How did CCC(CC)CN1C(Nc2ccccc2)=NCC1CC(C)C (stereo not drawn) do in these assays?
Ecoli growth: 0.65

Results for CC(CCN1CCCCc2nc(C)c(C)cc21)=NOC(C)c1cn(C(CO)Cc2ccccc2)nn1 (stereo not drawn) ?
Ecoli growth: 0.669

How did COc1ccc(-c2ccc(OC)c(C3C4C=CCC(C)C4C(=O)N3Cc3ccccc3)c2)cc1C (stereo not drawn) do in these assays?
Ecoli growth: 0.715

What do the screens show for `CCC(C)C(C(=O)N1CCNCC1)n1cc(CCCN=C(N)N)nn1` (stereo not drawn)?
Ecoli growth: 0.703

What do the screens show for `CC1CN(C(C)CO)C(=O)Cc2cc(NC(=O)CCC(F)(F)F)ccc2OC1CN(C)S(=O)(=O)c1ccc(Cl)cc1` (stereo not drawn)?
Ecoli growth: 0.663

Results for Cc1noc(C)c1NC(=O)N(C)CC1Oc2ccc(NS(=O)(=O)c3c(C)noc3C)cc2C(=O)N(C(C)CO)CC1C (stereo not drawn) ?
Ecoli growth: 0.671

What do the screens show for `C#Cc1ccc(C2C=C(C(=O)N3CCOCC3)OC(OCC)C2CCCO)cc1` (stereo not drawn)?
Ecoli growth: 0.665&0.7

Results for C=CCCC(Cc1ccc(F)cc1)C(=O)OCC(NC(=O)C(CC=C)CC(=O)NCCO)C(C)(C)C (stereo not drawn) ?
Ecoli growth: 0.656&0.697

How did CC=C(C)C(=O)Nc1cccc(C2=NOC3(C2)CC(C(N)=O)N(C(=O)C(C)=CC)C3)c1 (stereo not drawn) do in these assays?
Ecoli growth: 0.624

What do the screens show for `Cc1noc(C)c1S(=O)(=O)N(C)CC1Oc2ccc(NC(=O)Cc3ccccc3)cc2C(=O)N(C(C)CO)CC1C` (stereo not drawn)?
Ecoli growth: 0.703

How did CC(=O)Nc1ccc(SCC(C)CN2CCC(C(C)(C)C)CCC2=O)cc1 (stereo not drawn) do in these assays?
Ecoli growth: 0.693

How did C=CCNC(=O)C(=Cc1ccc(OC)cc1)NC(=O)c1ccc([N+](=O)[O-])cc1 do in these assays?
Ecoli growth: 0.716

What do the screens show for `Cc1cc(C(=O)O)ccc1NC=C1CCCC(C)C1=O` (stereo not drawn)?
Ecoli growth: 0.685

What do the screens show for `O=C(NCc1ccccc1)[C@]1(C(F)(F)F)CC(CCc2ccccc2)CCCO1` (stereo partly drawn)?
Ecoli growth: 0.691

What do the screens show for `COc1ccc(CC2CN3C(=NCC3C)N2CCNC(=O)c2ccc(C)c(Br)c2)cc1` (stereo not drawn)?
Ecoli growth: 0.69&0.663

What do the screens show for `CC(C)(C)OC(=O)NC(Cc1ccccc1)C(=O)NC(CO)C(O)C1CC1C(=O)NC1CCCCC1` (stereo not drawn)?
Ecoli growth: 0.674

What do the screens show for `CC1CN(C(C)CO)C(=O)c2cccc(NC(=O)Nc3ccc4c(c3)OCO4)c2OC1CN(C)S(=O)(=O)c1cccs1` (stereo not drawn)?
Ecoli growth: 0.667

Results for NC(Cc1ccc(O)cc1)c1cn(C(CCC(=O)O)C(=O)N2CCNCC2)nn1 (stereo not drawn) ?
Ecoli growth: 0.707

Brought forward from above: 2 entries; new compounds follow.
What do the screens show for `CC1CN(C(C)CO)C(=O)c2cccc(NC(=O)Nc3ccc4c(c3)OCO4)c2OC1CN(C)S(=O)(=O)c1cccs1` (stereo not drawn)?
Ecoli growth: 0.667

Results for NC(Cc1ccc(O)cc1)c1cn(C(CCC(=O)O)C(=O)N2CCNCC2)nn1 (stereo not drawn) ?
Ecoli growth: 0.707

Results for CC1C=C(C(=O)N2CCN(C)CC2)OC(OCc2ccc(CO)cc2)C1 (stereo not drawn) ?
Ecoli growth: 0.669

What do the screens show for `C[C@@]12C(=O)N(Cc3ccco3)CC(=O)N1C1c3ccccc3OCC1C2c1ccccc1` (stereo partly drawn)?
Ecoli growth: 0.722

What do the screens show for `COC(=O)C1=C(C)N(Cc2ccccc2)C(=NCc2ccc(OC)cc2)NC1c1ccccc1` (stereo not drawn)?
Ecoli growth: 0.655

How did CCCCCCCCCCCCN1C(CC(=O)OC)c2cc(F)ccc2S1(=O)=O (stereo not drawn) do in these assays?
Ecoli growth: 0.655

How did CCOC(=O)C(=CNc1ccccc1)[N+](=O)[O-] do in these assays?
Ecoli growth: 0.74

Results for COc1ccc(NC(=O)Nc2cccc3c2OC(CN(C)C(=O)Nc2ccc(C(F)(F)F)cc2)C(C)CN(C(C)CO)C3=O)cc1 (stereo not drawn) ?
Ecoli growth: 0.656

Results for O=C(C=Cc1ccc([N+](=O)[O-])cc1)NC1CC2CCC1C2 (stereo not drawn) ?
Ecoli growth: 0.694

What do the screens show for `COC(=O)C1=CC(C(=O)OC)C2C3=C(C(=O)[C@]2(CC(C)C)NC(=O)c2ccccc2)C(C)n2c(=O)n(-c4ccccc4)c(=O)n2C3C1` (stereo partly drawn)?
Ecoli growth: 0.679

What do the screens show for `Cc1[nH]c(=O)[nH]c(=O)c1CSc1nnc(C(CC(C)C)NC(=O)OC(C)(C)C)o1` (stereo not drawn)?
Ecoli growth: 0.718

How did CN(C)CC(Cl)=C(Cl)c1ccccc1 do in these assays?
Ecoli growth: 0.627

How did CC(NS(=O)(=O)OCC(Cl)(Cl)Cl)C1CC1c1ccccc1 (stereo not drawn) do in these assays?
Ecoli growth: 0.61

Results for CCN1C(=C2SC(=S)NC2=O)Sc2ccccc21 ?
Ecoli growth: 0.715

What do the screens show for `CCC(=O)Nc1cccc(C2=NOC3(C2)CC(C(N)=O)N(C(=O)CC)C3)c1` (stereo not drawn)?
Ecoli growth: 0.647

Results for O=C(NC1CC=CCC(CC(=O)N(CCO)Cc2ccccc2)C(=O)NCCOC1=O)OCC1c2ccccc2-c2ccccc21 (stereo not drawn) ?
Ecoli growth: 0.674

How did C#CCOCCOCCOCCNc1nc(N2CCN(C(=O)Cn3cc(CC(C)O)nn3)CC2)nc(N2CCN(C(=O)C(C(C)O)n3cc(CCCCN)nn3)CC2)n1 (stereo not drawn) do in these assays?
Ecoli growth: 0.674

At a glance, some entries already given.
What do the screens show for `COC(=O)C1=C(C)N(Cc2ccccc2)C(=NCc2ccc(OC)cc2)NC1c1ccccc1` (stereo not drawn)?
Ecoli growth: 0.655

How did CCCCCCCCCCCCN1C(CC(=O)OC)c2cc(F)ccc2S1(=O)=O (stereo not drawn) do in these assays?
Ecoli growth: 0.655

How did CCOC(=O)C(=CNc1ccccc1)[N+](=O)[O-] do in these assays?
Ecoli growth: 0.74

Results for COc1ccc(NC(=O)Nc2cccc3c2OC(CN(C)C(=O)Nc2ccc(C(F)(F)F)cc2)C(C)CN(C(C)CO)C3=O)cc1 (stereo not drawn) ?
Ecoli growth: 0.656

Results for O=C(C=Cc1ccc([N+](=O)[O-])cc1)NC1CC2CCC1C2 (stereo not drawn) ?
Ecoli growth: 0.694

Of the compounds above, these contain an aryl thioether with sulfur outside any ring.
How did CC(=O)Nc1ccc(SCC(C)CN2CCC(C(C)(C)C)CCC2=O)cc1 (stereo not drawn) do in these assays?
Ecoli growth: 0.693

What do the screens show for `Cc1[nH]c(=O)[nH]c(=O)c1CSc1nnc(C(CC(C)C)NC(=O)OC(C)(C)C)o1` (stereo not drawn)?
Ecoli growth: 0.718

Further records follow:
How did C#CCOCCOCCOCCNc1nc(N2CCN(C(=O)Cn3cc(CC(C)O)nn3)CC2)nc(N2CCN(C(=O)C(C)n3cc(CCCN=C(N)N)nn3)CC2)n1 (stereo not drawn) do in these assays?
Ecoli growth: 0.68

What do the screens show for `COc1ccc(OC)c(C2=CC(=O)CC(c3ccc4c(c3)OCO4)C2)c1` (stereo not drawn)?
Ecoli growth: 0.658

Results for CC1CCC2C(=O)N3C(CCC(C)C3c3cccc(N4CCCC4=O)c3)C(=O)N2C1c1cccc(N2CCCC2=O)c1 (stereo not drawn) ?
Ecoli growth: 0.718

Results for CN1CCC(=O)N(C(CO)Cc2ccccc2)CC1 (stereo not drawn) ?
Ecoli growth: 0.659

What do the screens show for `CN1C(=O)C2C(C=Cc3ccccc3)N3C(=O)CN(CC4CC4)C(=O)[C@@]3(C)C2C1=O` (stereo partly drawn)?
Ecoli growth: 0.701

How did CC=CC=CC(=O)N1CC2(CC(c3cccc(NC(=O)C(C)=CC)c3)=NO2)CC1C(N)=O (stereo not drawn) do in these assays?
Ecoli growth: 0.709

Results for O=C(C=Cc1ccccc1)N1CCC(Cc2ccccc2)CC1 ?
Ecoli growth: 0.633

What do the screens show for `Cc1[nH]c(=O)[nH]c(=O)c1C=NNC(=O)C(C)NC(=O)OC(C)(C)C` (stereo not drawn)?
Ecoli growth: 0.64

What do the screens show for `O=C(CC1CC=CCC(NC(=O)OCC2c3ccccc3-c3ccccc32)C(=O)OCC2CCCN2C1=O)NCCO` (stereo not drawn)?
Ecoli growth: 0.712

What do the screens show for `CC(CN1CCOCC1)OC(=O)C=Cc1ccccc1` (stereo not drawn)?
Ecoli growth: 0.661

What do the screens show for `CCC1C(OC(=O)NCc2ccccc2)CC2CCN3C(=O)CCCC1C23` (stereo not drawn)?
Ecoli growth: 0.698

How did CCN1CC2C3C(=O)N(C)C(=O)C3[C@](CC)(C1=O)N2C(=O)c1ccc(C)cc1 (stereo partly drawn) do in these assays?
Ecoli growth: 0.686

Results for Cc1ccc(N2C(=O)N3C(c4ccc(Cl)cc4)C4C(=O)N(C5CCCCC5)C(=O)C4[C@]3(Cc3ccccc3)C2=O)cc1 (stereo partly drawn) ?
Ecoli growth: 0.739

Results for O=C1NCC(c2ccccc2)OC(=O)C(Cc2ccc(F)cc2)CCC=CCC1CC(=O)N(CCO)Cc1ccccc1 (stereo not drawn) ?
Ecoli growth: 0.7&0.707&0.689&0.73&0.713&0.698

What do the screens show for `CCOC(=O)C1C2COc3ccc(Br)cc3C2N2C(=O)N(c3ccc(Cl)cc3)C(=O)[C@]12C` (stereo partly drawn)?
Ecoli growth: 0.714&0.716

What do the screens show for `CCOC(=O)C1C2COc3ccccc3C2N2C(=O)N(c3ccccc3)C(=O)[C@]12C` (stereo partly drawn)?
Ecoli growth: 0.676&0.708

What do the screens show for `CC1CN(C(C)CO)C(=O)c2cccc(NC(=O)C3CCCCC3)c2OC1CN(C)S(C)(=O)=O` (stereo not drawn)?
Ecoli growth: 0.673

What do the screens show for `CC(C)CC(CO)Nc1nc(Nc2cccc(Cl)c2)c2ncn(C(C)C)c2n1` (stereo not drawn)?
Ecoli growth: 0.689

Results for CCCCNC(=O)C1CC1C(O)C(CO)NC(=O)C(COCc1ccccc1)NC(=O)OC(C)(C)C (stereo not drawn) ?
Ecoli growth: 0.681

How did COc1ccc(-c2oc(=O)c3cc(OC)c(OC)cc3c2C=Cc2ccc(OC(C)=O)cc2)cc1 do in these assays?
Ecoli growth: 0.73

What do the screens show for `COc1cc(C=C2SC(=O)N(Cc3ccccc3Cl)C2=O)ccc1OCc1ccncc1`?
Ecoli growth: 0.764

How did CC(C)CC(NC(=O)c1nc[nH]c1C(=O)NCCCCCNC(=O)OC(C)(C)C)C(=O)OCc1ccccc1 (stereo not drawn) do in these assays?
Ecoli growth: 0.717

Results for CCC=CC(=O)N1CC2(CC(c3cccc(NC(=O)CC)c3)=NO2)CC1C(N)=O (stereo not drawn) ?
Ecoli growth: 0.684

Results for C#CCOCCOCCOCCNc1nc(N2CCN(C(=O)Cn3cc(CCCCN)nn3)CC2)nc(N2CCN(C(=O)C(C)n3cc(CCC(=O)O)nn3)CC2)n1 (stereo not drawn) ?
Ecoli growth: 0.714

Results for Cc1ccc(S(=O)(=O)N=C2NC(=O)C(=Cc3cccnc3)S2)cc1 ?
Ecoli growth: 0.69

Ordered by number of heavy atoms (highest first): part of the list above.
Results for CC1CCC2C(=O)N3C(CCC(C)C3c3cccc(N4CCCC4=O)c3)C(=O)N2C1c1cccc(N2CCCC2=O)c1 (stereo not drawn) ?
Ecoli growth: 0.718

What do the screens show for `Cc1[nH]c(=O)[nH]c(=O)c1CSc1nnc(C(CC(C)C)NC(=O)OC(C)(C)C)o1` (stereo not drawn)?
Ecoli growth: 0.718

What do the screens show for `COc1ccc(OC)c(C2=CC(=O)CC(c3ccc4c(c3)OCO4)C2)c1` (stereo not drawn)?
Ecoli growth: 0.658

Assay outcomes (PubChem BioAssay)

The list is partial; the hit share may differ from the screen's.
